# From PubChem BioAssay
# Sfp inh – inhibitors of Bacillus subtilis Sfp phosphopantetheinyl transferase; Biochemical Sfp PPTase activity, qHTS; AID 1490; Potency, µM, inactives show max response, negative = inhibition, most hits filed as inhibitors; hit rate 3.5% among 310,000; Q9F4F7; active = well fitted inhibition curve with a large enough effect; inconclusive = small, poorly fitted or top-dose-only effect, or another doubt; inactive = no such curve, though single readings can be large or run the other way;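 note: the enzyme is Sfp with the accession as filed and its product quenches rhodamine fluorescence; potency is the fitted concentration of half-maximal effect; 0% = enzyme reaction without inhibitor and -100% = no enzyme wells; top concentration of the series not given in the record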
#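 Buffer: 50 mM Hepes-Na pH 7.6, 10 mM MgCl2, 0.01% Nonidet P-40, 0.01% BSA. Enzyme 15 nM, pre-exposed to compound 15 min; substrates then added and fluorescence change tracked over 30 min.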
# PINK1 modulator – PINK1 expression modulation. hit rate 0.2% among 410,000. PINK1 immunofluorescence, high-content cytometry, 24 h. Potency, µM (top dose mostly 76.6 µM), for inactives: at the highest dose activation (PINK1 increase), usual class: activators; active = well fitted activation curve with a large enough effect; inconclusive = small, poorly fitted or top-dose-only effect; inactive = flat fitted curve, though single readings scatter; cell line not stated here;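 note: potency is the fitted concentration of half-maximal effect; % of control where 0% means no effect; nearly all actives have a fitted effect of over 65% in size; a mitochondrial uncoupler was the plate control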
#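 Stable cell line, 250 cells/well, 12 h attachment; compounds pinned at 5 concentrations, 24 h; CCCP control. Fixed with nuclear dye, primary antibodies 12 h at 10 degrees C, secondary plus cell stain; laser-scanning cytometer read.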
# TRPML1 inh – inhibitors of human TRPML1 channel. Q9GZU1. TRPML1-inducible cells, Ca2+ dye fluorescence, FDSS; active compounds read low; inhibition of EC80 agonist-evoked calcium signal. activity change, negative = inhibition, % (test concentration not listed). hit rate 0.02% among 390,000; in the data active means activity change below about -50%; inconclusive means about -30% to -50%; inactive means above about -30%;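 note: stimulus is agonist 54-4 at its EC80 concentration; % is set by controls: 0 for no effect and ±100 for the full control effect; compound concentration not given in the record; the text of the record puts the active cut at -80%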
#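 Tet-induced TRPML1-DL cells loaded with Ca8 no-wash calcium dye were read kinetically on FDSS. Compound addition was followed by EC80 agonist 54-4 (4 uM final); inhibition was read over 110 s.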
# TRPV1 PAM – human TRPV1 potentiation. Q8NER1. TRPV1-expressing cells, Fluo-8 calcium influx, capsaicin EC20 potentiation; host cell line not named in the record; control for the full effect not named in the record. potentiation, % at 8.33 µM. hit rate 0.02% among 320,000; active means potentiation above 80%; inconclusive means 30% to 80%; inactive means below 30%; note: 0% is about no effect
# Target sequence (Q8NER1 whole entry, looked up): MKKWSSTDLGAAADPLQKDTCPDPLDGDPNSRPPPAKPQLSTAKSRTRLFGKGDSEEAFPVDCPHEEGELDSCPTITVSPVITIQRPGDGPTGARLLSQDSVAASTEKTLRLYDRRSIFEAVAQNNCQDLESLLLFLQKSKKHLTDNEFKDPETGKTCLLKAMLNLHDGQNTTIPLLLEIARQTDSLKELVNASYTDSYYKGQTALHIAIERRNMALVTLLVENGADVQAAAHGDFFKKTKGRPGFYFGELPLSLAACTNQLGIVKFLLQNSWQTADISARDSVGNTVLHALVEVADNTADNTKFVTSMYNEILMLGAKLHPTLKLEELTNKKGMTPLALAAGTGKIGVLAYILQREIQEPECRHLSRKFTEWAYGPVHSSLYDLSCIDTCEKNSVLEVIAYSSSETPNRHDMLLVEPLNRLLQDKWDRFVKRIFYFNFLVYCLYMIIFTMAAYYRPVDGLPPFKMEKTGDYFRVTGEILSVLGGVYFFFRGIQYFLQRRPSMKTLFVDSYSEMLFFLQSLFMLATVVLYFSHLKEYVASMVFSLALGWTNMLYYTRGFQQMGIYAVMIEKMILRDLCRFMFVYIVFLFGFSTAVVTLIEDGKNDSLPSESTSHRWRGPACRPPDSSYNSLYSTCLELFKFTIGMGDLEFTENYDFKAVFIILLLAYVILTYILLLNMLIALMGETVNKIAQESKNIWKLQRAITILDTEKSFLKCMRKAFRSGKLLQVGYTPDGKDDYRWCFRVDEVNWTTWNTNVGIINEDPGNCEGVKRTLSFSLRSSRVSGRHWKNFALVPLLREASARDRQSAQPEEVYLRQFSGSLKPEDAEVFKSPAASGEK
#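 Fluo-8 calcium influx in TRPV1-expressing cells, kinetic read (ex 480/em 520 nm). Compound added and read 3 min for agonist activity, followed by capsaicin at EC20 final and 2 min further read for enhancement.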
# Menin MLL FP FL – menin-MLL binding inhibition, fluorescein peptide | Fluorescence polarization, fluorescein-MLL peptide displacement from menin | FP activity change, % at 61.4 µM | 290,000 tested, under 10 active | AID 1766; inconclusive = falling polarisation curve, or a change in total fluorescence; inactive = total fluorescence flat and polarisation flat or rising; no compound was filed as active; the % refers to the polarisation; negative = inhibition;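 note: % of control where 0% means no effect; inhibitors lower the polarisation; unlabelled MLL peptide was the positive control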
# ClpP mod – qHTS Assay for Activators of ClpP; ATP-dependent Clp protease proteolytic subunit (Bacillus subtilis (strain 168)), P80244; purified B. subtilis ClpP, FRET peptide cleavage, 20 min; Potency, µM (doses to about 57.5 µM), for the others: at the highest dose activity change, negative = active; hit rate 1.9% among 340,000; active = well fitted falling curve with a large enough effect; inconclusive = small, poorly fitted or top-dose-only effect; inactive = no such curve, though single readings can be large or run the other way; note: potency is the fitted concentration of half-maximal effect; the source files actives as falling curves though it sought activators and does not explain the sign; nearly all actives have a fitted effect of over 65% in size; many hits overshoot -100%
# Target sequence (P80244 whole entry, looked up): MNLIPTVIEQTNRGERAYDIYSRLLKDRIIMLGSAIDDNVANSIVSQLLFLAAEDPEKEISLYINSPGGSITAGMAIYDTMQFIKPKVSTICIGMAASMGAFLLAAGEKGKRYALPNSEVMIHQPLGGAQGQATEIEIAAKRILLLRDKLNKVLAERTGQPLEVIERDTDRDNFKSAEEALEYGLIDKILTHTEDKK
#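 ClpP 10 microg/mL final, pH 8 Tris/KCl buffer with BSA, glycerol, Tween-20; compound pinned in; FRET-FV substrate; RT 20 min; Ex320/Em430; ΔFRET vs ADEP 5.8 microM, DMSO, no enzyme.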
# TRPML1 agonist – agonists of human TRPML1 channel | Q9GZU1 | TRPML1-expressing cells, Ca2+ dye fluorescence, FDSS; host cell line not named in the record; reference of the full effect not given here | activation, % (no concentration beside the values) | hit rate 0.12% among 410,000 | AID 624414; in the data active = activation above about 50%; inconclusive = about 30% to 50%; inactive = below about 30%; note: 0% is about no effect; the text of the record puts the active cut at 80%
#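 Tetracycline-induced TRPML1-DL cells are seeded and incubated overnight before loading with a no-wash Ca2+ dye and quencher. Agonist activity is taken from the 110 s fluorescence read following compound pin-transfer on an FDSS, before EC80 54-4 challenge.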
# * hit, by the source's call; u = inconclusive; x = no result given; & = joins results of further samples; [ ] = another dose, or the depositor's remark.
SMILES,Sfp inh,PINK1 modulator,TRPML1 inh,TRPV1 PAM,Menin MLL FP FL,ClpP mod,TRPML1 agonist
CCOc1ccc(N(CC(=O)Nc2ccc(OC)cc2OC)S(=O)(=O)c2c(C)[nH]c(=O)[nH]c2=O)cc1,-3%,0.0%,3,9,x,-1.8%,-0.4
CC(C)C(c1nnnn1Cc1ccc(F)cc1)N1CCN(c2ccc(O)cc2)CC1 (configuration not stated),16µM*,-0.3%,18,-8,-1.1,x,-0.3
O=c1c(-c2ccccc2)nc2cnc(Nc3ccccc3)nc2n1Cc1cccs1,9%,u,x,x,u,x,x
C#CCOCCOCCOCCNc1nc(N2CCN(C(=O)CCCCCCCCCCNC(=O)[C@H](CCCCN)n3cc(CCO)nn3)CC2)nc(N2CCN(C(=O)CCCCCCCCCCNC(=O)[C@@H]([C@H](C)O)n3cc(C)nn3)CC2)n1,x,16%,5,23,x,2.9%,-0.2
CCCc1ccc(C(O)c2ncc(-c3cccc(C)c3)[nH]2)cc1 (configuration not stated),x,8.4%,37,x,x,0.4%,-0.4
CCC1(CC)NC(=O)N(CC(=O)OCC(=O)Nc2ccc(OC(F)(F)F)cc2)C1=O,x,-1.6%,-3,3,x,-2.2%,0.0
CN1CCN(C(=O)/C(=C/c2ccc(F)cc2)c2ccsc2)CC1,1%,0.5%,20,-6,5.1,-0.4%,2.9
Cc1ccc2scc(N3CCN(c4ccc(F)cc4)CC3)c(=O)c2c1,x,1.0%,-7,x,x,-8.3%,-0.7
Cc1ccc(NC(=O)NC(=O)COC(=O)c2ccc(O)cc2O)c(C)c1,x,3.4%,1,x,x,-1.9%,-0.3
COc1cccc(C(C(=O)NC(C)(C)C)N(Cc2ccc(C)cc2)C(=O)CCC(=O)Nc2cc(C)on2)c1OC (configuration not stated),11%,1.0%,7,-6,5.2,x,-0.3
COc1cccc(CN2CCNC(=O)C2CC(=O)N(C)CCC2CCOCC2)c1 (configuration not stated),4%,0.9%,-1,-3,x,-2.3%,-0.4
COc1cc(NC(=O)c2nn(C)c3c2CS(=O)(=O)c2ccccc2-3)cc(OC)c1,14%,2.8%&1.5%,0&-5,4,1.5,-24%&-6.9%,0.3&0.8
Cc1cc(=O)oc2c3c(cc(OCC(=O)N[C@@H](CC(C)C)C(=O)O)c12)OC(C)(C)CC3,10%,1.2%,6,0,3.3,0.0%,0.2
Cc1oc2ncnc(N)c2c1C,7%,-0.8%,9,7,1.6,-10%,-0.4
COc1ccc(CNC(=O)CCCNC(=O)c2ccc(Cl)cc2)cc1OC,-3%,-0.5%,5,-3,0.6,-2.1%,1.1
Cc1c(C(=O)N2CCN(S(=O)(=O)c3ccccc3)CC2)oc2ccccc12,x,-4.2%,11,11,x,-3.2%,1.9
CC(C)N1CCc2c(sc(NC(=O)c3ccc(S(=O)(=O)N(C)C4CCCCC4)cc3)c2C(N)=O)C1,x,1.7%,-17,x,x,-1.3%,2.5
COCCNC(=O)C(c1ccccc1)N(C(=O)Cn1nnc2ccccc21)c1cccnc1 (configuration not stated),-6%,-2.5%,9,1,9.1,1.1%,3.9
COc1ccc(C2(CCN)CC(C)N(C)CC2C)cc1 (configuration not stated),-18%,-2.1%,17,-4,-14,-1.0%,0.8
COc1ccc(S(=O)(=O)N2CCC(C(=O)NN3CCCCC3)CC2)cc1OC,x,0.8%,-1,2,x,1.5%,1.5
O=C(c1ccco1)N1CCN(Cc2nnc(-c3cccc(Br)c3)o2)CC1,12%,-2.9%,2,19,4.7,x,-0.6
Cc1cc(C)cc(NC(=S)Nc2cccc3cnccc23)c1,25µM*,-0.7%,0,-4,-3.7,x,-0.3
CCN(CC)S(=O)(=O)c1ccc2c(c1)N(CC(=O)N1CCN(c3cccc(C)c3)C(C)C1)C(=O)CO2 (configuration not stated),x,-0.2%,-23,x,x,-1.3%,-0.5
Cn1c(/C(C#N)=C(\O)COc2ccc3ccccc3c2)nc2ccccc21,-25%,13%,-1,u,5.0,-1.9%,-0.2
O=C(Nc1c(Cl)cc(Cl)cc1C(=O)NCCN1CCOCC1)c1ccc(Cl)cc1Cl,3%,-5.4%[38.3 µM],9,18,-1.0,-4.9%,0.3
CCOc1ccc(-n2c(CCC(=O)O)ccc2-c2ccc(Br)cc2)cc1,x,-1.3%,-8,x,x,2.4%,2.6
c1ccc(CCNc2ncnc3sccc23)nc1,12%,2.7%,-6,4,-1.1,x,-0.8
CSc1ccc(/C=N/NC(=O)c2sccc2C)cc1,13%,5.0%,4,-24,3.4,u,0.4
CC(C(=O)Nc1ccc2c(c1)OCCO2)n1nnc(-c2ccccc2)n1 (configuration not stated),-6%,6.6%,3,-9,-6.2,-1.4%,1.3
O=C(c1ccc2c(c1)OCO2)C1CCCN(Cc2ccc(OC(F)F)cc2)C1 (configuration not stated),8%,0.2%,45,-9,1.3,-4.4%,1.0
COC(=O)[C@@H](NS(=O)(=O)c1ccc(F)cc1Br)C(C)C,x,2.4%,-3,x,x,1.1%,-0.5
Cc1ccc(S(=O)(=O)/N=C2/NC(=O)/C(=C/c3ccncc3)S2)cc1,1%,x,x,1,4.0,x,x
O=C(c1ccco1)N1CCN(S(=O)(=O)c2ccc(S(=O)(=O)NC3CCCC3)cc2)CC1,3%,5.7%[38.3 µM],25,u,-1.4,0.4%,2.6
O=C(Cn1nnc(-c2ccccc2NC(=O)c2ccccc2)n1)Nc1ccc2c(c1)OCCO2,-18%,24%[38.3 µM],14,26,3.8,569%,0.8
COc1cc(C2NC(=O)NC(C)=C2C(=O)Nc2cccc(C)c2C)cc(OC)c1OC (configuration not stated),-1%,-0.8%,5,15,-0.9,1.4%,-0.6
Cc1cc2oc(=O)c(CC(=O)NCCc3ccccc3F)c(C)c2c2occ(C(C)(C)C)c12,x,2.2%,52,x,x,3.9%,2.0
Cc1cc(C(=O)CSc2nc(N)cc(=O)[nH]2)c(C)n1-c1cccc(F)c1,3%,-0.2%,-2,-12,1.1,0.7%,-0.9
Cc1cc(NCCN2CCOCC2)n2nc(C)c(-c3ccccc3)c2n1,13%,-2.4%,3,28,-0.2,-10.0%,0.1
C#CCOCCOCCOCCNc1nc(N2CCN(C(=O)[C@H](CCCCN)n3cc(CN)nn3)CC2)nc(N2CCN(C(=O)[C@H](CO)n3cc([C@@H](N)C(C)C)nn3)CC2)n1,x,-1.4%,-17,x,x,-2.9%,0.1
Cc1ccc(NC(=O)c2cc(S(=O)(=O)N3CCCCC3)ccc2N2CCOCC2)cc1,x,0.9%,3,x,x,0.7%,-1.3

# Brought forward from above: two compounds; new compounds follow.
SMILES,Sfp inh,PINK1 modulator,TRPML1 inh,TRPV1 PAM,Menin MLL FP FL,ClpP mod,TRPML1 agonist
C#CCOCCOCCOCCNc1nc(N2CCN(C(=O)[C@H](CCCCN)n3cc(CN)nn3)CC2)nc(N2CCN(C(=O)[C@H](CO)n3cc([C@@H](N)C(C)C)nn3)CC2)n1,x,-1.4%,-17,x,x,-2.9%,0.1
Cc1ccc(NC(=O)c2cc(S(=O)(=O)N3CCCCC3)ccc2N2CCOCC2)cc1,x,0.9%,3,x,x,0.7%,-1.3
O=S(=O)(NCc1ccccc1Cl)c1ccc(-n2cnnn2)cc1,20%,1.6%,-8,11,0.2,x,0.4
CC(C)CNCC(=O)N1c2ccccc2Sc2ccccc21,-22%,-1.3%,-8,x,2.0,-2.3%,0.0
O=C(CN(CC1CCCO1)C(=O)CNS(=O)(=O)c1ccc(Cl)cc1)NCC1CCCO1 (configuration not stated),6%,x,-7,-10,4.9,-0.2%,-0.1
CC1=CC(=C(C#N)C#N)C=C(C)N1CCN1CCN(C(=O)Nc2ccc(Cl)c(Cl)c2)CC1,20%,8.0%,13,7,2.4,u,0.9
COc1ccccc1/C=C/C(=O)NCC(=O)N/N=C/c1ccc(C(=O)O)cc1,19%,1.3%,1,3,4.3,x,0.0
CC1CCCN(CC(=O)Nc2ccc(S(=O)(=O)NC3CCCCC3)cc2)C1 (configuration not stated),-9%,-1.6%[38.3 µM],33,-7,7.9,-3.7%,0.9
COc1ccccc1N(C)S(=O)(=O)c1ccc(Cl)c(C(=O)N2CCC(C(N)=O)CC2)c1,13%,-0.1%,3,13,-3.9,x,0.1
COc1ccc(C2=NCC(CSc3nccc(=O)[nH]3)S2)cc1 (configuration not stated),15%,-0.7%,15,-1,7.7,-1.1%,2.8
Cc1ccccc1OCCCCN1CCCCC1,15%,5.2%,-1,-8,0.2,x,-0.5
Cn1c(SCc2nc(-c3ccc(Cl)cc3)no2)nnc1-c1ccccc1,2%,22%[38.3 µM],-2,0,0.5,1.0%,2.2
O=C(O)c1cccc(Cn2c(Cl)c(/C=N/Nc3ccccc3)sc2=O)c1,8.9µM*,-0.1%,13,7,u,0.3%,-0.8
O=C(Nc1ccc(Cl)cc1)C1CCCN1C(=O)NCc1ccccc1 (configuration not stated),18%,10%,13,-11,-5.0,x,0.3
COCCNC(=O)c1ccc(-n2c(-c3ccccc3)cc3c2CCCCC3)cc1,x,u,-5,x,x,-3.3%,0.6
O=C(N/N=C/c1ccc2c(c1)OCO2)C(=O)Nc1ccccc1Cl,12%,6.4%,-3,12,x,0.5%,-0.2
COC(=O)c1cc(-c2ccccc2)n(CCN)c1C,x,1.9%,2,x,x,-0.2%,-0.2
CC(C)CC(=O)Nc1ccccc1N1CCN(c2ccc(F)cc2)CC1,-13%,3.2%,13,-25,-0.3,x,-0.5
CC(C)NC(=O)NNc1c(Cl)cncc1Cl,11%,1.4%,10,-12,3.1,4.8%,3.4
COc1cc(NC(=O)COC(=O)CNC(=O)c2ccc(C)s2)cc(OC)c1,19%,-0.1%,1,4,0.8,x,2.4
O=C(O)C1CC(c2ccccc2)=Nc2ccccc2S1 (configuration not stated),19%,2.3%,1,-7,7.1,x,4.0
COc1ccc(CCNC(=O)C2CCN(S(=O)(=O)N3CCC(C)CC3)CC2)cc1OC,9%,0.0%,9,-3,x,-1.6%,0.8
O=C1C2C3C=CC(C3)C2C(=O)N1CCCCCCN1C(=O)C2C3C=CC(C3)C2C1=O (configuration not stated),-23%,0.4%,-11,-2,1.1,x,1.2
CCCCn1c(N)c(N(CC)C(=O)c2cc(C)cc(C)c2)c(=O)[nH]c1=O,23%,1.5%,16,-2,-11,x,0.1
Cc1ccccc1OCCCC(=O)NC1CCCCC1,0%,-0.2%,-19,-11,-12,-1.7%,0.7
